Sa growth inh = S. aureus growth inhibition. S. aureus RN4220 growth, OD600, 20 h, 42 °C; hits give low values. relative growth, % (concentration not given with the values). 0.53% of 170,000 active;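 active = growth at 42 °C up to 50% and 20 or more points under that at 30 °C, or under 10% at both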;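 also: 300 nL library stock went into each well; scaled to the means of positive and negative controls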
HCMV NEC inh = inhibitors of HCMV UL50-UL53 nuclear egress complex interaction; AID 1918969; 0.15% of 190,000 active; HTRF UL50-UL53 interaction, normalized percent inhibition; inhibition, % (test concentration not listed);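 active = both replicates at 50% or more, plus weaker picks with an unusually low signal ratio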;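 also: stock transfer was 100 nL into about 20 µL; 0% = negative control wells and 100% = wells with untagged competitor protein; inactives centre near -12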
GIV-Gai inh = blocks GIV peptide binding to rat Galpha-i3; P08753; Galpha-i3/FITC-GIV peptide fluorescence polarization, 90 min; hits give low values; scaled: aluminum fluoride 0%, vehicle 100%; percent of control (FP), % (concentration not given with the values); 0.42% of 210,000 active; AID 1224905;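 active = replicate mean at 85% of control or lower, very high polarization wells dropped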;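 also: wells of about 15 µL received 100 nL stock; the first replicate is given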
Target sequence (P08753 whole entry, looked up): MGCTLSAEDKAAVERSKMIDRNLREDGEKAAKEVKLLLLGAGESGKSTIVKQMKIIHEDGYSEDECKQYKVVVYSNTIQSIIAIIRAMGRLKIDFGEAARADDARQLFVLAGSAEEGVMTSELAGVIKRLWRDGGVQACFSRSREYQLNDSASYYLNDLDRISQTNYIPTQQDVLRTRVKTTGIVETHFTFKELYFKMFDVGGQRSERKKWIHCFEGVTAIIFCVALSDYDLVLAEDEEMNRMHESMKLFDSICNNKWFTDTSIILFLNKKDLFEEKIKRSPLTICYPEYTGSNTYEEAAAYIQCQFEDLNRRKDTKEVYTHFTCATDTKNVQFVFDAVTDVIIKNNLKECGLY
Sa growth inh second temp = recorded beside Sa growth inh, whose call it bears; relative growth, %; measured here: growth at 30 °C;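 optical density after 20 h as mean of two plates; 100% = untreated growth and lower means inhibition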
Numbers without * were called inactive; & = joins results of further samples.

What do the screens show for `CC(=O)Nc1cccc(NC(=O)Cc2csc(COc3cccc(C)c3)n2)c1`?
Sa growth inh: 97; HCMV NEC inh: -30; GIV-Gai inh: 106; Sa growth inh second temp: 87

Results for O=C(NO)c1cc(-c2ccccc2)nn1-c1ccccc1 ?
Sa growth inh: 109; HCMV NEC inh: -14; Sa growth inh second temp: 90

Results for O=C(Nc1ccc(Cl)cc1)C(NS(=O)(=O)c1cccs1)c1ccccc1 (configuration not stated) ?
Sa growth inh: 86; HCMV NEC inh: -2; GIV-Gai inh: 106; Sa growth inh second temp: 64

Results for CCN1CCN(C(c2ccc(C)cc2)c2c(O)cc(C)n(Cc3ccco3)c2=O)CC1 (configuration not stated) ?
Sa growth inh: 98; GIV-Gai inh: 101; Sa growth inh second temp: 91

Results for CCCOC(=O)CSc1n[nH]c(=O)[nH]c1=O ?
Sa growth inh: 104; HCMV NEC inh: -11; GIV-Gai inh: 100; Sa growth inh second temp: 87

How did CCC1CCCCN1C(=O)c1sc2nc(-c3ccccc3)cn2c1C (configuration not stated) do in these assays?
Sa growth inh: 112; HCMV NEC inh: -29; GIV-Gai inh: 103&104; Sa growth inh second temp: 52

Results for COCCNC(=O)c1nn(C)c2c1CSc1ccc(Cl)cc1-2 ?
HCMV NEC inh: -22; GIV-Gai inh: 104

Results for O=C(CSc1nc2ccccc2c(=O)n1CC1CCCO1)NCC1CCCO1 (configuration not stated) ?
Sa growth inh: 99; HCMV NEC inh: 3; GIV-Gai inh: 96; Sa growth inh second temp: 80

Results for COc1ccc(CNC(=O)c2cc3cc(OC)ccc3oc2=O)cc1 ?
Sa growth inh: 94; HCMV NEC inh: -38; GIV-Gai inh: 108; Sa growth inh second temp: 89

What do the screens show for `COc1ccc(S(N)(=O)=O)cc1-c1noc(C2CCCCC2)n1`?
HCMV NEC inh: -18; GIV-Gai inh: 105

What do the screens show for `COC(=O)COc1cccc(NC(=O)c2ccccc2F)c1`?
Sa growth inh: 110; HCMV NEC inh: 6; GIV-Gai inh: 102; Sa growth inh second temp: 99

What do the screens show for `COC(=O)c1cccc(NC(=O)C2CCN(S(=O)(=O)Cc3ccccc3)CC2)c1C`?
Sa growth inh: 120; HCMV NEC inh: 1; GIV-Gai inh: 103; Sa growth inh second temp: 85

How did COc1ccc(-c2nn(-c3ccccc3)cc2C2CC(c3cccs3)=NN2C(C)=O)cc1 (configuration not stated) do in these assays?
HCMV NEC inh: 0; GIV-Gai inh: 98

What do the screens show for `COc1ccc(-n2cc(C(=O)Nc3cc(F)ccc3F)c3ccccc3c2=O)cc1`?
Sa growth inh: 96; GIV-Gai inh: 107; Sa growth inh second temp: 92

What do the screens show for `CCCCn1c(-c2ccco2)nc2ccccc2c1=O`?
Sa growth inh: 83; HCMV NEC inh: -19; Sa growth inh second temp: 98

How did CCOC(=O)c1c(C)n(S(=O)(=O)c2ccc(C)cc2C)c2ccc(NS(=O)(=O)c3ccc(C)cc3C)cc12 do in these assays?
Sa growth inh: 99; HCMV NEC inh: -5; GIV-Gai inh: 100; Sa growth inh second temp: 94

How did Nc1ccc(S(=O)(=O)NC2=NCCC2)cc1 do in these assays?
Sa growth inh: 53; HCMV NEC inh: -44; Sa growth inh second temp: 70

What do the screens show for `O=C(NCC1COc2ccccc2O1)c1cn(Cc2ccc(F)cc2)nn1` (configuration not stated)?
Sa growth inh: 94; HCMV NEC inh: -10; GIV-Gai inh: 98; Sa growth inh second temp: 80

Results for Cc1noc(C(=O)NC2CCCCC2)c1Cl ?
Sa growth inh: 108; HCMV NEC inh: -2; GIV-Gai inh: 100; Sa growth inh second temp: 88

How did COC(CNC(=O)c1ccc(CS(=O)(=O)Cc2ccc(Cl)cc2)o1)OC do in these assays?
Sa growth inh: 94; GIV-Gai inh: 103; Sa growth inh second temp: 94

Results for CCOc1ccccc1C(=O)NC1CCCCCC1 ?
Sa growth inh: 65; HCMV NEC inh: -14; Sa growth inh second temp: 60

Results for O=S(=O)(Nc1cccc(CO)c1)c1cccs1 ?
Sa growth inh: 88; HCMV NEC inh: -13; GIV-Gai inh: 106; Sa growth inh second temp: 82

What do the screens show for `Cn1c(=O)n(C)c2cc(NS(=O)(=O)c3ccc(F)cc3)c(Cl)cc21`?
HCMV NEC inh: -6; GIV-Gai inh: 109

How did O=C(COCc1cc(-c2ccc(F)cc2)on1)N(CC1CC=CCC1)CC1CCCO1 (configuration not stated) do in these assays?
Sa growth inh: 55; HCMV NEC inh: -29; GIV-Gai inh: 99; Sa growth inh second temp: 29

What do the screens show for `O=C(Sc1ccccc1)c1ccc(C(F)(F)F)cc1`?
Sa growth inh: 102; HCMV NEC inh: -18; GIV-Gai inh: 102; Sa growth inh second temp: 91

What do the screens show for `COc1ccc(CN2CCN(c3ncnc4sc5c(c34)CC(C)CC5)CC2)cc1F` (configuration not stated)?
Sa growth inh: 106; HCMV NEC inh: 22; GIV-Gai inh: 105; Sa growth inh second temp: 90

How did CCC1CCCCN1C(=O)c1cc2c(=O)oc3ccccc3c2s1 (configuration not stated) do in these assays?
Sa growth inh: 97; HCMV NEC inh: -1; GIV-Gai inh: 106; Sa growth inh second temp: 94

What do the screens show for `Cc1ccc(Cl)cc1NC(=O)c1cc(NC(=O)C2CC=CCC2C(=O)O)ccc1N1CCOCC1` (configuration not stated)?
Sa growth inh: 97; HCMV NEC inh: -6; GIV-Gai inh: 106; Sa growth inh second temp: 77

What do the screens show for `O=C(NCc1cccnc1)C1CC(c2ccccc2F)=NO1` (configuration not stated)?
Sa growth inh: 96; HCMV NEC inh: -24; GIV-Gai inh: 99; Sa growth inh second temp: 82

What do the screens show for `COc1ccc(C(=O)NCCn2cc(SC(C)c3ccccc3)c3ccccc32)cc1OC` (configuration not stated)?
Sa growth inh: 87; HCMV NEC inh: -5; GIV-Gai inh: 100; Sa growth inh second temp: 85

What do the screens show for `Cc1ccc(C(=O)NCc2ccc3c(c2)CCO3)cc1C`?
Sa growth inh: 85; HCMV NEC inh: 7; GIV-Gai inh: 98; Sa growth inh second temp: 107

How did COc1ccc(NC(=O)CCc2nc3cc(S(=O)(=O)N4CCCCC4)ccc3n2C)cn1 do in these assays?
Sa growth inh: 92; HCMV NEC inh: -25; Sa growth inh second temp: 91

Results for COc1c(C)cnc2c1c(=O)n(CC(=O)Nc1ccccc1)c(=O)n2C ?
HCMV NEC inh: -16; GIV-Gai inh: 105

How did CC(C)OCC(O)Cn1c2ccccc2c2ccccc21 (configuration not stated) do in these assays?
Sa growth inh: 126; HCMV NEC inh: 0; GIV-Gai inh: 98; Sa growth inh second temp: 85

Results for Cc1cc(C)n(-c2nc3ccccc3nc2NCC(C)O)n1 (configuration not stated) ?
Sa growth inh: 94; HCMV NEC inh: -25; GIV-Gai inh: 106; Sa growth inh second temp: 105

Results for CN(C)S(=O)(=O)c1cccc(CN2C(=O)NC(CCc3ccccc3)C2=O)c1 (configuration not stated) ?
Sa growth inh: 115; HCMV NEC inh: -8; Sa growth inh second temp: 98

How did COc1ccc(NC(=O)CN2C(=O)C(c3ccc(C(C)(C)C)cc3)=NC2(C)C)cc1Cl do in these assays?
Sa growth inh: 101; HCMV NEC inh: -30; GIV-Gai inh: 100; Sa growth inh second temp: 86

Results for Cc1ccc(S(=O)(=O)CCN2CCC(C(F)(F)F)CC2)cc1 ?
Sa growth inh: 110; HCMV NEC inh: -32; GIV-Gai inh: 101; Sa growth inh second temp: 90

What do the screens show for `CCN(CC)S(=O)(=O)c1ccc2oc(-c3nc(-c4ccccn4)no3)c(C)c2c1`?
HCMV NEC inh: -17; GIV-Gai inh: 97

What do the screens show for `Cn1nc(-c2ccccc2F)c2cc(C(=O)Nc3ccc4c(c3)OCO4)sc21`?
Sa growth inh: 124; HCMV NEC inh: 15; GIV-Gai inh: 111; Sa growth inh second temp: 81

Results for CCOC(=O)c1ccc(NC(=O)C2CCN(S(=O)(=O)c3ccc(C)cc3)CC2)cc1 ?
Sa growth inh: 89; HCMV NEC inh: -40; GIV-Gai inh: 108; Sa growth inh second temp: 82

Results for CN(C)CCNCc1cc2c(-c3cccc(F)c3)nn(-c3ccccc3)c2[nH]c1=O ?
Sa growth inh: 35; HCMV NEC inh: -2; GIV-Gai inh: 102; Sa growth inh second temp: 11

How did CC(C)(C)OC(=O)Cn1ccc(=O)[nH]c1=O do in these assays?
Sa growth inh: 97; HCMV NEC inh: -8; GIV-Gai inh: 109; Sa growth inh second temp: 95

How did COc1ccc(C(=O)COC(=O)c2cc(Br)ccc2Cl)cc1 do in these assays?
Sa growth inh: 95; HCMV NEC inh: 8; Sa growth inh second temp: 86

Results for c1ccc(-n2ncc3c(N4CCOCC4)ncnc32)cc1 ?
Sa growth inh: 111; HCMV NEC inh: -10; GIV-Gai inh: 102; Sa growth inh second temp: 108

Results for O=S(=O)(Cc1ccc(F)cc1)Cc1noc(-c2ccno2)n1 ?
Sa growth inh: 129; HCMV NEC inh: -33; GIV-Gai inh: 108; Sa growth inh second temp: 87

What do the screens show for `CCOc1cccc2sc(NC(=O)c3ccc(S(=O)(=O)N4CCc5ccccc54)cc3)nc12`?
Sa growth inh: 105; GIV-Gai inh: 95; Sa growth inh second temp: 86

What do the screens show for `O=C(O)COc1ccc(Nc2ccccc2)cc1`?
Sa growth inh: 118; HCMV NEC inh: -23; Sa growth inh second temp: 87

How did CCCNC(=O)Nc1cccc(-c2noc(-c3ccccc3C)n2)c1 do in these assays?
HCMV NEC inh: -3; GIV-Gai inh: 101

What do the screens show for `CCc1ccc(/C=C2\C(=N)N3N=C(N4CCCC4)SC3=NC2=O)cc1`?
Sa growth inh: 88; GIV-Gai inh: 105; Sa growth inh second temp: 90

What do the screens show for `COc1ccc(Br)cc1CNC(=O)c1oc2ccc3c(c2c1C)C(=O)CC(C)(C)O3`?
Sa growth inh: 100; HCMV NEC inh: -13; GIV-Gai inh: 101; Sa growth inh second temp: 93

How did COc1cc(OC)c(NC(=O)Cn2c(SCc3ccccc3F)nc3cccnc32)cc1Cl do in these assays?
Sa growth inh: 85; GIV-Gai inh: 102; Sa growth inh second temp: 90

How did CC1CCC(NC(=O)c2cc3c(s2)CSC3)CC1 (configuration not stated) do in these assays?
Sa growth inh: 100; HCMV NEC inh: -22; GIV-Gai inh: 103; Sa growth inh second temp: 84

What do the screens show for `N#Cc1c(N)oc(-c2ccccc2)c1-c1ccccc1`?
Sa growth inh: 113; HCMV NEC inh: -8; GIV-Gai inh: 106; Sa growth inh second temp: 101

How did CSc1ccccc1CNC(=O)NC12CC3CC(CC(C3)C1)C2 do in these assays?
Sa growth inh: 93; HCMV NEC inh: -27; GIV-Gai inh: 98; Sa growth inh second temp: 88

Results for Nc1nnc(CCS(=O)(=O)c2ccc(Br)cc2)s1 ?
Sa growth inh: 104; GIV-Gai inh: 102; Sa growth inh second temp: 81

What do the screens show for `O=C(CCc1ccccc1)NC1CC(=O)N(c2cccc(F)c2)C1` (configuration not stated)?
Sa growth inh: 115; GIV-Gai inh: 103; Sa growth inh second temp: 84

Entries shown so far that have a Cl atom (9):
Results for O=C(Nc1ccc(Cl)cc1)C(NS(=O)(=O)c1cccs1)c1ccccc1 (configuration not stated) ?
Sa growth inh: 86; HCMV NEC inh: -2; GIV-Gai inh: 106; Sa growth inh second temp: 64

Results for COCCNC(=O)c1nn(C)c2c1CSc1ccc(Cl)cc1-2 ?
HCMV NEC inh: -22; GIV-Gai inh: 104

Results for Cc1noc(C(=O)NC2CCCCC2)c1Cl ?
Sa growth inh: 108; HCMV NEC inh: -2; GIV-Gai inh: 100; Sa growth inh second temp: 88

How did COC(CNC(=O)c1ccc(CS(=O)(=O)Cc2ccc(Cl)cc2)o1)OC do in these assays?
Sa growth inh: 94; GIV-Gai inh: 103; Sa growth inh second temp: 94

What do the screens show for `Cn1c(=O)n(C)c2cc(NS(=O)(=O)c3ccc(F)cc3)c(Cl)cc21`?
HCMV NEC inh: -6; GIV-Gai inh: 109

What do the screens show for `Cc1ccc(Cl)cc1NC(=O)c1cc(NC(=O)C2CC=CCC2C(=O)O)ccc1N1CCOCC1` (configuration not stated)?
Sa growth inh: 97; HCMV NEC inh: -6; GIV-Gai inh: 106; Sa growth inh second temp: 77

How did COc1ccc(NC(=O)CN2C(=O)C(c3ccc(C(C)(C)C)cc3)=NC2(C)C)cc1Cl do in these assays?
Sa growth inh: 101; HCMV NEC inh: -30; GIV-Gai inh: 100; Sa growth inh second temp: 86

How did COc1ccc(C(=O)COC(=O)c2cc(Br)ccc2Cl)cc1 do in these assays?
Sa growth inh: 95; HCMV NEC inh: 8; Sa growth inh second temp: 86

How did COc1cc(OC)c(NC(=O)Cn2c(SCc3ccccc3F)nc3cccnc32)cc1Cl do in these assays?
Sa growth inh: 85; GIV-Gai inh: 102; Sa growth inh second temp: 90

Screening data from PubChem.
